KCNQ2 inh – KCNQ2 potassium channel inhibitors, primary screen, cell-based, CHO-K1, FluxOR thallium flux, B-score (AID 2156). O88943. 20 min; hits give low values; only compounds with negative scores are shown here; some inactives read as strong as hits. B-score at 10 µM. 310,000 compounds, 1.1% hits;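 active means fluorescence ratio B-score at most minus 3 library SDs, with starting brightness B-score within 2 library SDs, cut at about -5.5 in these data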
Target sequence (O88943 whole entry, looked up): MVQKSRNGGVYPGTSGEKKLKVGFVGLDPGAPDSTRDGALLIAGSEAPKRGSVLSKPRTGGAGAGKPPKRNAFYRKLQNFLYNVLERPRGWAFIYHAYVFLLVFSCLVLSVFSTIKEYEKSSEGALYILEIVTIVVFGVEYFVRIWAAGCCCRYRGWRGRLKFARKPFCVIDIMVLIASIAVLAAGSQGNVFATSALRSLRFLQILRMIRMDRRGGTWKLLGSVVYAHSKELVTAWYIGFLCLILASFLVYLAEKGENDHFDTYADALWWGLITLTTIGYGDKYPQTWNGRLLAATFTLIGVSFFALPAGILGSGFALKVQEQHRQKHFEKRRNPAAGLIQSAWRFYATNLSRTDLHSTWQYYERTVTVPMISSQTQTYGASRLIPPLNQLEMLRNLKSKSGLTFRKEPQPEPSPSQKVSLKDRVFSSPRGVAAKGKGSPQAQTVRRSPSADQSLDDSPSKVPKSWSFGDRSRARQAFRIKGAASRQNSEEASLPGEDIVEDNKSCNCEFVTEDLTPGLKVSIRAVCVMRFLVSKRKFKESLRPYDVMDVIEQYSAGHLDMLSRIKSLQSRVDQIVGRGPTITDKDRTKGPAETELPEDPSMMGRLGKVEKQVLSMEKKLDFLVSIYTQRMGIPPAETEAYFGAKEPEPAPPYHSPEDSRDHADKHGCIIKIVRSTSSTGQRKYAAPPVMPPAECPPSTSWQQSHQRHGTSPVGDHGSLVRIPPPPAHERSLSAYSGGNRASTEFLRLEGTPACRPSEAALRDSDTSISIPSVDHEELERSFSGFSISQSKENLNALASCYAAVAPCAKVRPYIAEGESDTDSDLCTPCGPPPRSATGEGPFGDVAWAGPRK
KCNQ2 inh baseline – also measured in KCNQ2 inh; calls as there; B-score; measured here: initial fluorescence intensity artifact check;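 brightness before thallium and not channel activity; 0 = typical well and far values either way flag optical interference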
An asterisk follows results filed as active; i = inactive.

KCNQ2 inh | KCNQ2 inh baseline | compound
i | -2.11 | Cc1oc2c(c(C)cc3oc(=O)c(CC(=O)NCCCO)c(C)c32)c1C
i | 1.45 | NS(=O)(=O)c1ccc(CCNC(=O)C(=O)c2cn(CC(=O)N3CCCC3)c3ccccc23)cc1
i | -0.59 | CCCCCOC(=O)C1C2C=CC3(CN(c4ccccc4C)C(=O)C13)O2 (stereo not drawn)
i | 0.01 | O=c1oc(-c2cccs2)nc2ccc(Cl)cc12
-9.24* | 0.07* | Cn1cc(/C=N/n2cnc3sc4c(c3c2=O)CCCC4)c2ccccc21
i | -0.93 | COc1ccccc1N1CCN(/N=C/c2cccc(OC)c2O)CC1
i | -0.54 | COc1cc(/C=N\NC(=O)c2cccnc2)ccc1OC(=O)c1ccccc1Cl
i | -0.11 | Cc1ccc(NC(c2ccccc2)c2nc3ccccc3[nH]c2=O)cc1 (stereo not drawn)
i | -0.82 | COc1ccc(CCNC(=O)C23CCC(C)(C(=O)C2=O)C3(C)C)cc1OC (stereo not drawn)
i | 0.08 | O=C(CCNC(=O)c1ccc([N+](=O)[O-])cc1)Nc1ccccc1N1CCOCC1
i | -0.31 | COc1ccc(C(=O)C[n+]2cc(Br)cc3ccccc32)cc1[N+](=O)[O-]
i | 4.39 | Cc1cccc(-c2nc(Nc3ccc(N4CCOCC4)cc3)c3ccccc3n2)c1
i | 0.01 | Cc1ccc(S(=O)(=O)N(C)C)cc1NC(=O)C(C)OC(=O)/C=C/c1cccs1 (stereo not drawn)
i | -0.52 | Cc1ccsc1C(=O)OCC(=O)N1CCc2ccccc2C1
i | 0.84 | O=C(Nc1cnccn1)c1ccncc1
i | -0.01 | CCc1ccc(C(=O)NC(=S)Nc2ccccc2N2CCOCC2)cc1
i | -0.19 | CSc1ccccc1-n1nnnc1SCc1ccccc1
-6.15* | -0.83* | c1ccc(CCn2c3ccccc3c3nnc(SCc4ccc5nonc5c4)nc32)cc1
i | 0.58 | O=C(CCC(=O)Nc1ccccc1Cl)N/N=C1\CCCc2ccccc21
i | 0.02 | Cc1cccc(N(CC(=O)NC2CCCC2)C(=O)c2c(C)noc2C)c1
i | 1.23 | CCN1CCN(C(c2cccs2)C(C)NC(=O)c2ccccc2F)CC1 (stereo not drawn)
i | -0.36 | COC(=O)[C@@H]1[C@@H](C)N(Cc2ccccc2)C(=O)N[C@H]1c1ccccc1
-9.06* | -1.84* | Clc1cccc(-c2nc3nc4ccccc4nc3n2Cc2ccco2)c1
i | -1.23 | Cc1ccc(C)c(NC(=O)C(NCC(C)(C)N2CCOCC2)c2ccccc2)c1 (stereo not drawn)
i | -0.08 | COc1cc(OC)c(OC)cc1CN(C)C(c1ccccc1)c1nnnn1-c1ccccc1C (stereo not drawn)
i | -0.02 | O=C(CCc1nnc(CCCCc2ccccc2)o1)NCCn1cccn1
i | 0.32 | CCNc1nc(=S)nc(NC(C)C)[nH]1
i | -0.45 | COc1ccc(-c2cc(C(=O)Nc3ccc(C)c(N)c3)c3ccccc3n2)cc1
i | -0.03 | N#CC(c1ccccc1O)N1N=C(c2ccccc2)CC1c1ccccc1 (stereo not drawn)
i | -1.57 | Cc1nn(C)c(C)c1CNC(=O)Nc1ccc(Cl)cc1
i | 1.73 | Cc1cc(C)n(-c2nc(SCC(=O)O)c3c4c(sc3n2)COC(C)(C)C4)n1
i | 1.34 | Cc1onc(-c2c(F)cccc2Cl)c1C(=O)NC1CCSC1=O (stereo not drawn)
i | 2.28 | N#Cc1sc2nc3c(c(-c4cccnc4)c2c1N)CCC3
i | -0.35 | COc1ccc(C(=O)N/N=C/c2ccc(OC(=O)c3cccc4ccccc34)c([N+](=O)[O-])c2)cc1
i | 0.22 | O=C1CC(N2CCN(Cc3ccc4c(c3)OCO4)CC2)C(=O)N1Cc1ccc(N2CCCC2=O)cc1 (stereo not drawn)
i | -1.69 | COc1ccc2c(c1)CCC1C2=NN(/C(C)=C\C(C)=O)C1c1ccc(F)cc1 (stereo not drawn)
i | -0.9 | Cc1cc(C)c2nc(N(CCCN(C)C)C(=O)c3ccc(S(=O)(=O)N4CCCCCC4)cc3)sc2c1
i | -0.7 | COc1ccc(CCN2CC(O)=C(c3nc4ccccc4c(=O)[nH]3)C2=N)cc1OC
i | 0.02 | COC(=O)CCC(=O)Nc1cccc(Br)c1
i | -0.81 | CCCC1=NN(C(=O)C(=O)Nc2ccc(Br)cc2)C(O)(C(F)(F)F)C1 (stereo not drawn)
i | 0.54 | CC1(C)CC(=O)C(Sc2ccccc2[N+](=O)[O-])=C(O)C1
i | -1.91 | Cc1cc(C)n2nc(SCC(=O)N/N=C/c3ccccc3F)nc2n1
i | -0.49 | O=C(COc1ccc2c3c(c(=O)oc2c1)CCC3)Nc1ccc(CCO)cc1
i | 1.59 | Cc1cc(Cn2nc(C(=O)NCC3CC3)cc2-c2ccccc2)on1
i | -3.31 | CCOC(=O)C1CN(S(=O)(=O)c2ccc(C)cc2)c2ccccc2O1 (stereo not drawn)
i | -0.81 | Cc1nc2ccccc2n1CCCOc1ccccc1
i | -0.03 | COc1cccc(OCC(O)CN2CCN(CCN3C(=O)c4cccc5cccc(c45)C3=O)CC2)c1 (stereo not drawn)
i | 0.3 | O=C(Cn1nc(Cc2cccnc2)c2ccccc2c1=O)NCC1CCCO1 (stereo not drawn)
i | -1.52 | O=C(CC1C(=O)NCCN1CC1CCCCC1)NCCc1ccc(F)cc1 (stereo not drawn)
i | 0.84 | CCOP(=O)(OCC)C(Nc1cccc(C(F)(F)F)c1)c1ccc(F)cc1 (stereo not drawn)

(continued)
KCNQ2 inh | KCNQ2 inh baseline | compound
i | 0.87 | Cc1ccc2[nH]cc(S(=O)(=O)c3ccc(F)cc3)c(=O)c2c1
i | 0.03 | COc1ccc(N2CCN(C(=O)c3cccc(N4C(=O)C5C6C=CC(C6)C5C4=O)c3)CC2)cc1 (stereo not drawn)
i | 0.02 | O=C(CSc1nc(=O)n2cc(Cl)ccc2n1)Nc1cccc2ccccc12
i | 1.52 | Cc1nc2ccccc2c(=O)n1NC(=O)Cc1ccc([N+](=O)[O-])cc1
i | 0.15 | O=C(N/N=C\c1cc(Br)ccc1O)c1ccc(S(=O)(=O)N2CCCCC2)cc1
i | -0.52 | O=C(COC(=O)CSc1ccc(F)cc1)NNC(=O)c1ccc([N+](=O)[O-])cc1
i | -0.73 | N/C(=N\OC(=O)c1ccc(OCC(F)(F)F)nc1)c1ccc(Cl)cc1
i | 2.74 | COc1ccccc1C(=O)Nc1ccc(C(=O)N2CCCCC2)cc1
i | -0.45 | Fc1cccc(-c2cc3nc4c(c(NCc5ccco5)n3n2)CCCC4)c1
i | -2.51 | O=c1oc2ccccc2c(O)c1CN1CCCCC1
i | 2.39 | CC(NS(=O)(=O)c1ccc(NC(=O)N2CCCCC2)cc1)c1ccccc1 (stereo not drawn)
i | -0.23 | COC(=O)CN1C(=S)N(Cc2ccccc2)C(=O)C1CC(=O)Nc1ccc(Br)cc1 (stereo not drawn)
i | 0.21 | Cc1ccc(S(=O)(=O)Nc2nccs2)cc1[N+](=O)[O-]
i | 0.08 | CC(C)OC(=O)Nc1ccc(Oc2c(F)c(F)c(F)c(F)c2F)cc1
i | 1.55 | O=C(Nc1c(Cl)cccc1Cl)c1cc(-c2ccco2)on1
i | 0.12 | Cn1cc(Br)c(C(=O)NC(=S)Nc2ccc(S(N)(=O)=O)cc2)n1
i | -0.13 | CCOC(=O)c1ccc(CNC(=O)c2n[nH]c(=O)c3ccccc23)o1
i | 0.04 | Cc1noc(C)c1NC(=O)N1CCN(Cc2ccccc2)CC1
i | -0.9 | CCn1c(SCCOc2ccc(OC)cc2)nnc1C(CO)NC(=O)c1ccc(OC)cc1 (stereo not drawn)
i | 77.6 | O=c1ccc2c(-c3ccccc3)c3ccc(O)cc3oc-2c1
i | 52.9 | Cc1nc2ccccc2n2c(O)c(CC(=O)O)cc12
i | 0.88 | CC(NC(=O)c1ccc(NC(=O)CC2SC(N3CCCC3)=NC2=O)cc1)c1ccc(S(N)(=O)=O)cc1 (stereo not drawn)
i | 0.48 | O=C(/C=C\c1cn(-c2ccccc2)nc1-c1cccs1)N1CCOCC1
i | -0.57 | COc1ccc(-n2nc([N+](=O)[O-])c(=NCCc3ccc(C)cc3)n2O)cc1
i | -1.32 | Cn1cc(SCC(=O)N2CCN(c3ccccc3)CC2)c2ccccc21
i | 1.68 | COCCn1c(SCC(=O)N2CCCC2=O)nc2sc(C)c(C)c2c1=O
i | -0.09 | COc1cc(-c2nc3ccccn3c2/N=C/c2ccccc2)ccc1O
i | -0.11 | CCc1ccc(C2CC(c3ccccc3C)n3nc(N)nc3N2)cc1 (stereo not drawn)
i | -0.34 | CCCCNC(=O)OC1CCS(=O)(=O)C1 (stereo not drawn)
i | -0.72 | N#CC[n+]1cc(-c2ccc(Cl)cc2)n2c1CCC2
i | -0.96 | COc1ccc(-c2nc3c(-c4ccc(F)cc4)cnn3cc2C)cc1F
i | -2.88 | O=C(N[C@@H]1CCC(=O)N(CC[C@H](Sc2ccccc2)c2ccccc2)CC1)OCc1ccccc1
i | -0.39 | COc1ccc(NC(=O)CCN2CCN(Cc3ccccc3)CC2)c(OC)c1
i | 0.71 | O=C(CNC(=O)c1ccc(Br)o1)NCc1cccc(Cl)c1
i | -0.76 | O=C(C1CCN(Cc2ccc(OCc3ccccc3)cc2)CC1)N1CCCC1
i | -1.06 | COC(=O)c1ccc(N(C(=O)c2ccco2)C(C(=O)NC2CCCC2)c2ccco2)cc1 (stereo not drawn)
i | -0.34 | COc1ccccc1NC(=O)Cn1cnc2c(cnn2-c2ccc(C)c(C)c2)c1=O
i | -0.87 | S=c1sc2ccccc2n1CCc1ccncc1
i | -0.81 | CCOC(=O)c1c(C)nsc1NC(=O)c1ccco1
i | 0.18 | CC12C=CC3(O1)C(C(=O)N(c1ccccc1)C3C(=O)NC1CCCC1)C2C(N)=O (stereo not drawn)

By substructure: the compounds so far containing a cyano group.
KCNQ2 inh | KCNQ2 inh baseline | compound
i | -0.03 | N#CC(c1ccccc1O)N1N=C(c2ccccc2)CC1c1ccccc1 (stereo not drawn)
i | 2.28 | N#Cc1sc2nc3c(c(-c4cccnc4)c2c1N)CCC3
i | -0.72 | N#CC[n+]1cc(-c2ccc(Cl)cc2)n2c1CCC2

Remaining list, next part:
KCNQ2 inh | KCNQ2 inh baseline | compound
i | 0.3 | CC1=C(Sc2ccccn2)C(=O)NC(C)(C)C1
i | -1.15 | COc1ccc(C2=Nn3c(nnc3-c3cc(C)[nH]n3)SC2)cc1
i | 0.61 | Cc1cccc(NS(=O)(=O)c2ccc(C3CCCCC3)cc2)c1
i | 1.11 | Cc1c(C(=O)N2CCCCC2)c(S(=O)(=O)NCCc2ccccc2)c(C)n1C
i | -0.5 | COc1ccc(N(CC(=O)NC2CCCCCC2)S(=O)(=O)c2ccccc2)cc1Cl
i | 0.87 | O=C1COc2ccc(S(=O)(=O)NCc3ccc(Cl)cc3)cc2N1
i | 2.28 | Cc1ccc(OCCNC(=O)C2CCCCC2)cc1
i | -1.1 | CCOc1ccccc1C1C(C#N)=C(N)Nc2onc(-c3ccccc3)c21 (stereo not drawn)
i | -0.04 | COc1ccc(S(=O)(=O)N2CCC(C(=O)NCCC(=O)Nc3cccc(OC)c3)CC2)cc1
i | -0.22 | O=C(CSc1nnc(-c2ccccc2)n1Cc1ccccc1)N1CCCC1

Brought forward from above: 7 entries, followed by the next part.
KCNQ2 inh | KCNQ2 inh baseline | compound
i | 1.11 | Cc1c(C(=O)N2CCCCC2)c(S(=O)(=O)NCCc2ccccc2)c(C)n1C
i | -0.5 | COc1ccc(N(CC(=O)NC2CCCCCC2)S(=O)(=O)c2ccccc2)cc1Cl
i | 0.87 | O=C1COc2ccc(S(=O)(=O)NCc3ccc(Cl)cc3)cc2N1
i | 2.28 | Cc1ccc(OCCNC(=O)C2CCCCC2)cc1
i | -1.1 | CCOc1ccccc1C1C(C#N)=C(N)Nc2onc(-c3ccccc3)c21 (stereo not drawn)
i | -0.04 | COc1ccc(S(=O)(=O)N2CCC(C(=O)NCCC(=O)Nc3cccc(OC)c3)CC2)cc1
i | -0.22 | O=C(CSc1nnc(-c2ccccc2)n1Cc1ccccc1)N1CCCC1
i | 0.01 | CCC(=O)Nc1cccc(NC(=O)c2ccc(C)cc2Cl)c1
i | -0.51 | COc1ccc(CSc2nnc(C)s2)cc1F
i | 0.81 | Cc1ccc(S(=O)(=O)Cn2nnnc2C(C(C)C)N2CCN(Cc3ccco3)CC2)cc1 (stereo not drawn)
i | 1.52 | CC(C)Cc1nnc(NC(=O)CCC(=O)N2CCN(c3ccccn3)CC2)s1
i | 0.67 | O=C(c1cc(-c2ccncc2)nc2ccc(Br)cc12)N1CCN(c2ccccn2)CC1
i | 1.34 | COC(=O)COc1ccc(S(=O)(=O)Nc2ccc(C(N)=O)cc2)cc1
i | 1.57 | COc1ccccc1N1CCN(C(=O)c2ccc(S(=O)(=O)N3CCCCCC3)cc2)CC1
i | 0.32 | CSc1ccc(CN(C)CC(=O)Nc2cccc(Br)c2)cc1
i | 0.93 | COc1ccc(-c2nnc(SCC(=O)c3ccc(O)cc3O)o2)cc1
i | 0.03 | CO/N=C/c1cccn1-c1nccc(N(C)C)c1C#N
i | -0.19 | CC(Sc1ccc2c(c1)OCCO2)C(=O)Nc1ncc(Cl)cc1Cl (stereo not drawn)
i | 0.42 | O=C(CN1CCN(CCN2C(=O)c3cccc4cccc(c34)C2=O)CC1)c1ccc(F)cc1
i | -0.82 | CN(Cc1ccn[nH]1)C(=O)C1CCC(=O)N(Cc2cccc(C(F)(F)F)c2)C1 (stereo not drawn)
i | 2.4 | O=C1c2ccccc2S(=O)(=O)N1CC(O)COc1ccc(Cl)cc1 (stereo not drawn)
i | -0.13 | CN(C)C(=O)CSc1nc(-c2ccccc2)c(-c2ccccc2)o1
i | 0.71 | CCOc1ncccc1C(=O)NCCc1ccc(OC)cc1
i | 0.88 | Cc1c2c(nc3c(C(=O)NC4CCCCC4C)cnn13)CCCC2 (stereo not drawn)

Screening results as filed in PubChem BioAssay.

These rows are one share of the data, so the mix of outcomes need not match the whole.
